LANA-H2B inh = blocks KSHV LANA binding to histone H2A/H2B | Q9QR71 | cell-free LANA-H2A/H2B peptide, fluorescence polarization | inhibition, % (no concentration beside the values) | 320,000 compounds, 0.6% hits; in the data active = inhibition mostly above about 10%, no sharp cut-off; inactive = mostly below about 6.7%;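 note: stock transfer was 7.5 nL into about 10 µL; 0% = median of vehicle wells and 100% = median of positive control wells; one replicate is shown; the record names a cut of 25% in any replicate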
Beta2AR agonist = activates human beta-2 adrenergic receptor causing internalization; P07550; Am2.2-beta2AR cells, FAP receptor internalization, flow cytometry; reference of the scale not given here; response, % (no concentration beside the values); 340,000 compounds, 0.43% hits; AID 504454;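 active = response above a set limit, near 3 SD of response in nonfluorescent compounds, cut at about 42% in these data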;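 note: stock transfer was 100 nL into about 11 µL; a reference agonist was the positive control; negative values mostly stem from fluorescent compounds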
HNF4A DNA FP = change in binding of human HNF4 alpha to DNA; P41235; HNF4a-FITC DNA binding, fluorescence polarization, 1 h; activity change, % at 10 µM; 360,000 compounds, 0.3% hits; AID 1224865; in the data active = activity change above about 30%, passing the limit was not always enough;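 note: controls were the assay level and a saturating level of protein; the project sought stronger binding though the title names inhibitors; some compounds called inactive have numbers as strong as hits; positive values seem to mean higher polarization but the record does not say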
Target sequence (P41235 whole entry, looked up): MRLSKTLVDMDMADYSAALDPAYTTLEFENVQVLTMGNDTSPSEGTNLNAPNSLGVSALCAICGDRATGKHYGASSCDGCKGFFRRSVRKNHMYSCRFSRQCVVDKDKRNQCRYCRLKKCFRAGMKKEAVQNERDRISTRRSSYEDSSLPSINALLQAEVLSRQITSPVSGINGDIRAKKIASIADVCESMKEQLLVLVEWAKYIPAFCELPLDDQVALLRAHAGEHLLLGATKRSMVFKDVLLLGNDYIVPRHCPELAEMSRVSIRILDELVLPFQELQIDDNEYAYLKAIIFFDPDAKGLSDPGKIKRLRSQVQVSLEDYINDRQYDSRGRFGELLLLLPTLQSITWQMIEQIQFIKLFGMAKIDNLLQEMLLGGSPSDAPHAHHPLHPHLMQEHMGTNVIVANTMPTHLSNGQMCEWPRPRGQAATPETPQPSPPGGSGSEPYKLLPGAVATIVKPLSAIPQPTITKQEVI
Bfl-1 A1 inh = inhibitors of the anti-apoptotic protein A1, read as caspase activation; MEF A1-2A-BIM cells, Caspase-Glo 3/7 luminescence, 3 h; percent of clofoctol response, vehicle zero; caspase activation, % (test concentration not listed); 330,000 compounds, 0.066% hits; AID 2462;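 active = over half of replicate activation scores above 10%, or exactly half above 10 with the replicate mean above 10; inconclusive = replicate mean below 10 yet half the replicates above 10; inactive = over half of replicates below 10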;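 note: wells of about 30 µL received 50 nL stock; many hits fall short of the cut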
Vif TR-FRET = inhibitors of Vif binding to APOBEC3G peptide, primary screen, biochemical, TR-FRET, GST-Vif 1-94, biotin-A3G peptide, dose response retest (AID 1117319) | TR-FRET GST-Vif / biotin-A3G peptide binding; higher % means a stronger effect; test concentration not given here; strong numbers were not always called active | 260,000 compounds, 0.57% hits | inhibition, %, or IC50 in µM where a hit was titrated;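 active = above the screen mean plus three standard deviations and confirmed in dose response; inconclusive = results disagree or hit not tested in dose response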;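 note: Vif residues 1-94 fused to GST binding biotinylated APOBEC3G peptide 110-148; 0% = full assay without inhibitor and 100% = GST in place of GST-Vif; retest series ran down from 100 µM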
Ecoli growth = blocks Escherichia coli growth. OD600, 23 h; hits give low values. AID 1053175. 330,000 compounds, 0.21% hits. OD600 absorbance (test concentration not listed);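 active = OD600 absorbance below the run mean of sample wells minus 3.6 SD, in any replicate, cut at about 0.56 in these data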;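 note: stock transfer was 300 nL into about 60 µL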
UCH37 DUB inh = inhibitors of human deubiquitinating enzyme UCH37. Q9Y5K5. purified proteasome/UCH37, Ub-AMC cleavage fluorescence. inhibition, % (no concentration beside the values). 330,000 compounds, 0.33% hits. AID 588478;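 active = mean of two replicates above 20%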;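 note: 0% = compound-free wells with enzyme and 100% = wells lacking proteasome; stock transfer was 100 nL into about 20 µL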
Target sequence (Q9Y5K5 whole entry, looked up): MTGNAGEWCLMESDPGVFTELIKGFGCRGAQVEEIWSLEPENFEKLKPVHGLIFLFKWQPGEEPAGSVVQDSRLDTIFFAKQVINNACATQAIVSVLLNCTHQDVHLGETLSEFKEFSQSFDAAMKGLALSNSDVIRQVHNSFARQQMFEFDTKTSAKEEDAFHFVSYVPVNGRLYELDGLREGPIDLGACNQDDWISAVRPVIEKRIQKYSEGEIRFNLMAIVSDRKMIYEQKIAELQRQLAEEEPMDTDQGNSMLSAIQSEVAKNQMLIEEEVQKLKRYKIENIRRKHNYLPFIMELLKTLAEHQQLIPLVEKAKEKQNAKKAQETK
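Signal – fluorescence, ex 355 nm, em 460 nm · System – Proteasome-bound UCH37 · Input – 0.15 nM proteasome as dispensed · Timing – 30 min preincubation with enzyme, 25 min cleavage at room temperature · Read-out basis – percent inhibition of cleavage signal versus uninhibited and no-proteasome wells · Medium – Tris-HCl pH 7.4 with ATP-MgCl2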
* hit, by the source's call; ? = inconclusive; . = not tested or not shown.

SMILES	LANA-H2B inh	Beta2AR agonist	HNF4A DNA FP	Bfl-1 A1 inh	Vif TR-FRET	Ecoli growth	UCH37 DUB inh
CCCNC(=O)CN(Cc1ccccc1F)S(=O)(=O)c1ccc(C)cc1	2.3	-7	-11	0.4	14%	0.74	-0.5
CCN1CCN(C(=O)c2cn(CC)c3ccc(S(=O)(=O)N(C)C)cc3c2=O)CC1	-0.5	4	1.2	0.7	7%	0.71	3.0
CCOc1ccc(N2C(=O)C3C(c4ccccc4F)NN(C(=O)c4ccc(C)cc4)C3C2=O)cc1 (stereo not given)	-0.2	0	-3.5	0.9	7%	0.7	3.3
Cc1ccc(Nc2nc(N)nc(CSC(=S)N3CCOCC3)n2)cc1	-2.1	-6	-2.0	-0.5	12%	0.7	5.0
S=c1[nH]nc(-c2cccs2)n1Cc1ccccc1	-0.1	-1	3.4	1.0	-2%	0.71	-22
COc1ccc([N+](=O)[O-])cc1C(=O)Nc1ccc(OCC(=O)N2CCOCC2)cc1	-1.7	-3	4.2	1.4	18%	0.67	7.7
CC(CNC(=O)c1cc(COc2ccc3ncccc3c2)on1)c1ccccc1 (stereo not given)	-2.6	-9	1.8	1.1	-9%	0.67	-1.1
CNS(=O)(=O)c1cc(OC)c(OC)cc1CC(=O)OC	-5.2	2	1.8	-0.1	-2%	0.62	3.7
CCO[C@H]1OC(C(=O)NC2CC2)=C[C@@H](c2ccccc2)[C@@H]1CCCO	1.4	-13	4.0	-0.3	1%	.	3.7
O=C(COc1ncnc2ccccc12)Nc1cc([N+](=O)[O-])ccc1Cl	-3.0	3	0.8	1.7	8%	0.63	4.3
O=C(CCCNc1ccccc1)N/N=C/c1cccs1	-1.7	2	1.5	-0.6	-3%	.	.
COC(=O)c1ccc(-c2nc(O)c(C)s2)cc1	2.3	5	1.9	-0.4	6%	0.7	-12
COc1cc(/C=N/NC(=O)COc2ccccc2[N+](=O)[O-])ccc1OC(=O)c1ccco1	2.6	-20	-0.9	-0.4	.	.	.
Cc1ccc(-n2c(=O)[nH]cc(C(=O)Nc3ccc4c(c3)OCCO4)c2=O)cc1	0.6	4	1.4	-0.7	-2%	0.73	4.3
O=C1SC(SCc2ccccc2)=N/C1=C\c1ccc(C(=O)O)cc1	-0.2	6	-2.5	0.0	15%	0.71	9.4
O=C(Nc1cccc(F)c1)c1cccnc1NCCc1ccccc1	-4.7	-4	1.0	0.3	7%	0.73	-38
CC(C)OCCCNC(=O)c1ccc(CN2CCc3ccccc3C2)cc1	4.7	4	4.0	-0.3	.	0.65	1.7
Cc1ccccc1/C=C/c1nc2ccccc2c(=O)[nH]1	-1.2	-13	7.7	-6.7	.	0.7	-180
COc1cc(-c2ccc(NC(C)=O)c(OC)c2)ccc1NC(C)=O	-3.0	1	0.5	1.0	1%	0.69	1.3
Cc1cccc(-c2n[nH]c(=S)n2C)c1	-2.2	2	-2.0	0.8	.	0.7	2.3
COCCn1nnnc1C(c1cc2ccc(OC)cc2[nH]c1=O)N1CCN(C2CCCCC2)CC1 (stereo not given)	-9.7	4	2.9	0.2	11%	0.7	-10
Cc1ccccc1-c1cc(C(=O)O)n(CC2CC(c3cccnc3)=NO2)n1 (stereo not given)	1.6	0	1.7	-1.0	.	0.66	6.0
O=C(COC(=O)c1ccc(Br)o1)Nc1ccc(Br)cc1	.	1	3.1	.	.	0.68	6.0
COCCOC(=O)c1nccnc1C(=O)Nc1ccc(S(=O)(=O)N2CCOCC2)cc1	-2.7	-3	-3.6	0.3	2%	0.66	4.6
CC(C)(C)c1ccc(C(CC(=O)O)NC(=O)C23CC4CC(CC(C4)C2)C3)cc1 (stereo not given)	0.2	-2	1.6	-1.1	5%	0.69	-0.2
The listing continues.
SMILES	LANA-H2B inh	Beta2AR agonist	HNF4A DNA FP	Bfl-1 A1 inh	Vif TR-FRET	Ecoli growth	UCH37 DUB inh
O=C(NC1CCCc2c1cnn2-c1cc(F)cc(F)c1)c1ccc[n+]([O-])c1 (stereo not given)	-1.3	-4	0.3	-0.2	.	0.7	4.5
Cc1cc(C)nc(-n2ncc3c2CCCC3=O)n1	1.0	1	3.1	-0.6	-7%	0.7	1.0
COc1ccc(S(=O)(=O)Nc2ccccc2C(=O)N2CCCCC2)cc1C	4.4	-2	0.6	-0.5	.	0.73	-0.8
C/C(=N\NS(=O)(=O)c1ccccc1)c1cc(Cl)cc(Cl)c1O	0.5	-2	3.4	1.2	7%	.	.
CCOc1cc(CNc2ccc3c(c2)CCC3)ccc1OC	2.9	.	.	0.2	6%	.	.
Cc1ccc(NS(=O)(=O)c2cccc(C(=O)NCC(c3ccco3)N3CCCC3)c2)cc1 (stereo not given)	-4.8	-3	-0.8	-0.7	-13%	0.67	2.9
CC(C)OCc1ccc(C(=O)N2CCN(CC(=O)N3CCCC3)CC2)cc1	1.2	1	-2.0	1.0	.	0.72	2.2
CC(C)(C)N1C(=O)c2ccc(C(=O)Nc3cc(C(=O)O)cc(C(=O)O)c3)cc2C1=O	1.9	0	-6.0	0.8	.	0.7	-0.2
C[C@]12C=CC(=O)C=C1CC[C@H]1[C@@H]3C[C@@H](O)[C@](O)(C(=O)CO)[C@@]3(C)C[C@H](O)[C@@]12F	-1.4	3	0.6	0.2	?	.	-1.1
COc1ccc(C(=O)Oc2ccc3c(c2)OCO3)cc1OC	-1.0	-2	0.8	0.3	-3%	0.66	3.0
O=C(CCn1c(=S)[nH]c2ccccc2c1=O)NCCCN1CCOCC1	2.4	-7	3.4	0.9	-10%	0.61	2.8
Cc1c(Cc2ccccc2)c(=O)oc2cc(OCc3ccc(C(=O)O)cc3)ccc12	-1.7	8	0.0	0.0	.	0.72	-329
COc1ccc(CCNC(=O)C2CCN(C(=O)c3ccc(OC)c(OC)c3)CC2)cc1	6.6	2	0.2	2.1	1%	0.65	4.5
Cn1c(=O)c2c(-c3ccc(C(C)(C)C)cc3)n(CC3CCCO3)cc2n(C)c1=O (stereo not given)	0.7	-2	-1.1	-0.7	5%	0.72	4.1
CCOC(=O)c1ccc2[nH]c(C)c(CN3CCN(C)CC3)c(=O)c2c1	.	4	-2.1	.	.	0.73	3.3
O=C(N/N=C/C(Br)=C/c1ccccc1)C1CC1	-1.1	-3	2.8	-0.1	.	.	.
O=C(N1CCOCC1)C(F)(F)C(F)(F)C(F)(F)C(F)(F)C(=O)N1CCOCC1	1.6	1	-3.2	-0.9	?	0.71	-1.2
C1=C[C@@H]2CCN(Cc3ccccc3)Cc3cccc(c32)C1	-1.9	7	-15	0.5	.	.	2.1
COc1ccc(N(C(=O)c2cccc(OC)c2OC)C2C=CS(=O)(=O)C2)cc1 (stereo not given)	-1.4	6	1.7	0.1	2%	0.73	-1.3
CCN(C(=O)CN1C(=O)COc2ccc(S(=O)(=O)N3CCOCC3)cc21)c1ccc(OC)cc1	0.9	-7	1.0	0.8	.	0.68	0.6
CC(=O)c1ccc(OC(=O)N(c2ccccc2)c2ccccc2)cc1	-5.8	3	-0.2	0.3	?	0.73	1.6
NS(=O)(=O)c1ccc(CCNC(=O)CSCC(=O)Nc2ccc(Cl)cc2)cc1	-5.2	5	-0.7	1.3	4%	0.66	-0.4
CCCCc1ccc(-c2nc(N)n[nH]2)cc1	-5.6	-2	1.7	-1.2	75%	0.61	2.1
O=C(CCN1C(=O)C2CCCCC2C1=O)Nc1nc(-c2ccccc2)cs1 (stereo not given)	-1.3	3	-1.4	-0.1	.	0.69	2.3
O=C(NCCc1nnc2ccc(NCCCN3CCOCC3)nn12)c1ccccc1F	0.4	1	2.7	1.1	.	0.62	-2.2

Fetched by compound from the entries so far (three):
SMILES	LANA-H2B inh	Beta2AR agonist	HNF4A DNA FP	Bfl-1 A1 inh	Vif TR-FRET	Ecoli growth	UCH37 DUB inh
CNS(=O)(=O)c1cc(OC)c(OC)cc1CC(=O)OC	-5.2	2	1.8	-0.1	-2%	0.62	3.7
COc1ccc(C(=O)Oc2ccc3c(c2)OCO3)cc1OC	-1.0	-2	0.8	0.3	-3%	0.66	3.0
CCOc1cc(CNc2ccc3c(c2)CCC3)ccc1OC	2.9	.	.	0.2	6%	.	.

Later entries
SMILES	LANA-H2B inh	Beta2AR agonist	HNF4A DNA FP	Bfl-1 A1 inh	Vif TR-FRET	Ecoli growth	UCH37 DUB inh
O=[N+]([O-])C1=CC=C2C(=NC3(CCCCC3)N2O)C1=NC1CCCCC1	0.9	-1	-3.7	1.2	13%	0.69	-2.3
COc1ccccc1CNC(=O)c1cnccn1	3.1	-6	-0.1	0.3	19%	0.64	2.1
CCN(CC)c1ccc(CNc2nc3ccccc3n2C(C)C)cc1	-2.0	-7	3.8	-0.1	-2%	0.68	-0.9
CC(C)(C)NC(=O)C(c1ccncc1)N(C(=O)c1csnn1)c1ccccc1 (stereo not given)	-7.4	6	0.3	1.0	22%	0.69	2.1
O=C(/C=C/c1ccc(F)cc1)NC(=S)NNC(=O)[C@H]1C[C@@H]1c1ccccc1	-3.4	-17	-1.9	-0.1	.	0.7	9.3
CCc1ccc(/C(C)=N\Nc2ccc([N+](=O)[O-])cc2)cc1	-0.3	0	25	1.4	2%	.	.
O=C(CSc1n[nH]c(=O)[nH]c1=O)c1ccc([N+](=O)[O-])cc1	-2.3	-13	0.4	0.3	.	0.7	0.2
CC(C)Sc1nc2c(c(=O)n1-c1ccc(F)cc1)SCC2	4.7	-2	-1.6	-0.7	-2%	0.68	4.8
O=C(CSc1ccc(Br)cc1)N1CCN(C(=O)c2ccco2)CC1	-3.9	-13	0.9	-0.2	17%	0.68	-1.8
Nn1c(SCC(=O)Nc2c(Cl)cccc2Cl)nncc1=O	0.5	1	-2.7	0.5	-3%	0.61	5.2
O=C(O)CCCCCNc1ccc2nsnc2c1[N+](=O)[O-]	-1.4	4	-1.5	0.4	11%	0.65	13
O=C(NCc1ccccc1)c1ccc(NC(=O)c2ccccc2F)cc1	4.1	12	0.9	-0.4	.	0.72	-1.8
O=C(Nc1ccc2c(c1)OCO2)c1ccccc1SCC(=O)N1CCCC1	-5.9	0	1.8	-0.1	3%	0.76	4.5
CSc1ccccc1NC(=O)COc1ccc2c(c1)OCO2	-1.7	6	-0.9	-2.1	.	0.66	2.2
COCCSc1nnc(NC(=O)Cc2cccs2)s1	0.9	1	3.8	0.6	15%	0.7	6.0
Cc1ccc(Cn2c(=O)c3ccccc3n3nc(C)cc23)cc1	-0.3	1	5.5	0.1	-5%	0.72	-4.9
O=C(COC(=O)C1CC1)Nc1ncc(C(F)(F)F)cc1Cl	3.2	3	-2.4	0.0	-5%	0.7	-3.9
COc1ncnc(OC)c1S(=O)(=O)NCc1ccccc1	2.1	-2	3.1	-0.4	-3%	0.65	1.7
COc1ccc(C2C(=O)c3ccccc3C2=O)cc1OC	-7.0	3	4.8	-5.6	.	0.66	5.6
CC(=O)NC(CC(=O)OCC(=O)c1c(N)n(CC(C)C)c(=O)n(C)c1=O)c1ccccc1 (stereo not given)	-2.8	2	-5.3	0.2	-7%	0.7	1.3
O=C(c1ccc(N2CCCS2(=O)=O)cc1)N1CCN(c2ccccc2)CC1	2.0	2	4.8	-0.1	.	0.69	4.5
CCN1C(=O)[C@@H]2[C@@H](c3ccc(SC4CCCCC4)cc3)N3CCCC[C@@]3(C(=O)OC)[C@@H]2C1=O	-6.0	9	24	2.0	.	.	0.4
CC(C)Cn1c(=O)c(-[n+]2ccccc2)c([O-])c2ccccc21	-4.0	6	4.8	-0.1	?	0.69	1.3
CCC(CC)C(=O)OCC(=O)NC12CC3CC(CC(C3)C1)C2	-1.5	-4	1.9	0.1	-4%	0.71	0.7
O=C1c2oc3ccc(Cl)cc3c(=O)c2C(c2cccc(Br)c2)N1CCO (stereo not given)	0.7	-25	-1.1	-0.2	8%	0.78	5.0
COc1ccc(CCNC(=O)COc2ccccc2[N+](=O)[O-])cc1OC	-3.4	8	1.5	0.2	0%	0.68	2.8
